Screens from PubChem.
NPYLR7 agonist – activates Aedes aegypti NPYLR7 receptor; AID 1259423; HEK293T NPYLR7/Galpha15, GCaMP6s calcium fluorescence; activation, % at 10 µM; 270,000 compounds, 0.15% hits; in the data active = activation above about 40%;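 also: 0% = vehicle and 100% = reference agonist at the receptor; some compounds past the cut are filed as inactive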
NPYLR7 agonist max-min – further read-out of NPYLR7 agonist, marked with its call; activation, %; measured here: Max-Min RFU normalised activation; some inactives read as strong as hits;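 span of the calcium signal over five minutes; 0% = vehicle and 100% = native peptide agonist; compound fluorescence can raise it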
* marks the source's active call; other numbers are inactive results; & = joins results of further samples. A portion of the library, so the mix of outcomes need not match the whole.

Every second line gives: NPYLR7 agonist | NPYLR7 agonist max-min
COc1ccc(Cn2cc(C(=O)N3CCN(C/C=C/c4ccccc4)CC3)nn2)cc1
→ 0 | -3
Cc1cc2c(cc1O)NC(=O)CC2c1cnc(-c2ccccc2C)s1 (stereo not drawn)
→ 6 | 5
CN1CC2(CCCN(C(=O)CCc3nc(Cl)n[nH]3)CC2)OC1=O (stereo not drawn)
→ 1 | 27
O=C1CC(NS(=O)(=O)N2CCCCC2)CN1CCc1ccc(F)cc1 (stereo not drawn)
→ 6 | 0
CC(C)c1noc(OCC(=O)NCC(F)(F)F)n1
→ 8 | 4
O=C(NCc1nnnn1-c1ccc(F)c(F)c1)c1cccc2ccccc12
→ 2 | 1
c1ccc(Oc2cccc(-c3nccc4[nH]nc(-c5ccncc5)c34)c2)cc1
→ 16 | 11
Fc1ccc(Cc2nc3n(n2)N=C(c2ccc(Cl)cc2)CS3)cc1
→ 6 | 10
COCCNC(=O)CCN(Cc1ccccc1)c1nc(C2CC2)nc2ccccc12
→ -5 | 6
CNc1ccc(-c2ccc(OC)nc2)cn1
→ 2 | 0
COc1ccccc1CCNC(=O)C1CCC(c2cccc(C)c2)N(C(=O)C2CC2)C1 (stereo not drawn)
→ 0 | -3
COc1ccc(NC(=O)C(Cc2ccccc2)N2CC3=C(C2=O)C(c2ccc(Cl)cc2)NC(=O)N3C)cc1 (stereo not drawn)
→ 1 | 12
O=c1cc(O)c2sc3nc(-c4cccs4)cc(-c4ccc(F)cc4)c3c2[nH]1
→ -4 | -10
O=C(NCCn1ncccc1=O)c1cccc(F)c1
→ 2 | 1
Cc1ccc(NC(=O)N(CCCN2CCOCC2)C2CCS(=O)(=O)C2)cc1 (stereo not drawn)
→ 0 | 1
COCc1cc(N2CCOCC2)nc(SCc2ccc(C(=O)N3CCN(C)CC3)cc2)n1
→ 6 | 15
CNC(=O)CSc1nnc(N2CCN(C(=O)c3c(F)cccc3Cl)CC2)s1
→ -13 | -19
COC(=O)c1ccc(CSc2nc3c(c(=O)n2-c2ccc(OC)cc2)SCC3)o1
→ 0 | 64
CCOC(=O)C1(Cc2cccc(OC)c2)CCCN(Cc2cccn2-c2nccs2)C1 (stereo not drawn)
→ 8&7 | 8&17
Cc1cccc(-n2c(C3(c4ccc(Cl)cc4)CCC3)n[nH]c2=S)c1
→ 22 | 11
Cc1cc(F)ccc1Oc1cc(N2CCN(C(=O)c3ccc([N+](=O)[O-])cc3)C(C)C2)ncn1 (stereo not drawn)
→ 6 | 7
C=CCNCc1csc(COc2cccc(C)c2C)n1
→ -8 | -6
Cn1c(=O)n(C)c2cc(Cn3ccnc3-c3ccc(CO)o3)ccc21
→ 15 | 10
COCc1cc(C)nc(OCC(=O)N/N=C\c2ccc(OCc3ccccc3)cc2)c1C#N
→ 4 | -2
CC(CNC(=O)C(N)=O)N(C)c1ccccc1 (stereo not drawn)
→ -3 | -7
Cc1ccc(COc2coc(CN3CCc4ccccc43)cc2=O)cc1
→ 0 | -2
CCOC(=O)c1cc(CCC(C)C)n(-c2ccc(C(=O)N3CCSCC3)cc2)n1
→ -5 | -17
O=C(CCC(=O)c1cccs1)OCC(=O)C12CC3CC(CC(C3)C1)C2
→ 3 | 1
Cc1ccc(C2(O)CCN(CCC(=O)c3ccc(F)cc3)CC2)nc1
→ 4 | -2
O=C(CSc1nc2c(c(=O)n1Cc1ccccc1)SCC2)N1CCOCC1
→ -1 | -11

3 compounds out of the list, sorted by length of the SMILES, rising:
Every second line gives: NPYLR7 agonist | NPYLR7 agonist max-min
CC(C)c1noc(OCC(=O)NCC(F)(F)F)n1
→ 8 | 4
CCOC(=O)c1cc(CCC(C)C)n(-c2ccc(C(=O)N3CCSCC3)cc2)n1
→ -5 | -17
COCc1cc(N2CCOCC2)nc(SCc2ccc(C(=O)N3CCN(C)CC3)cc2)n1
→ 6 | 15

(further entries)
Every second line gives: NPYLR7 agonist | NPYLR7 agonist max-min
O=C(Nc1cccc(Oc2ccccc2)c1)C1CC=CCC1C(=O)N1CCc2c([nH]c3ccccc23)C1 (stereo not drawn)
→ -10 | -20
NNc1nc2c(c(=O)[nH]1)C1(CCCC1)Cc1ccccc1-2
→ -11 | -19
O=C(c1cccc(Cl)c1)C1CCCN(S(=O)(=O)c2cccc3cccnc23)C1 (stereo not drawn)
→ -3 | -3
O=C(CC1Sc2ccccc2NC1=O)NCCCCOc1ccccc1 (stereo not drawn)
→ -7 | -3
O=C(c1ccc(NCC2CCCCO2)nc1)N1CCC(Cn2cccn2)CC1 (stereo not drawn)
→ 24 | 15
O=C(NCCNc1nc(C2CC2)nc2cc(Cl)ccc12)Nc1ccc(F)cc1F
→ 11 | 26
CC1CCC2(CC1)NC(=O)N(NC(=O)CSc1nnnn1C1CC1)C2=O (stereo not drawn)
→ 1 | 0
O=C(Nc1ccccc1)Nc1nc(C23CC4CC(CC(C4)C2)C3)cs1
→ -3 | -9
Cc1noc2ncc(C(=O)NCC(C(C)C)N3CCCCCC3)cc12 (stereo not drawn)
→ 1 | -1
Cc1occc1C(=O)NC(c1ccc(F)cc1)C(C)C (stereo not drawn)
→ -4 | -5
CCOc1ccc(N2C(=O)CC(Sc3nc4c(cc3C#N)CCCCC4)C2=O)cc1 (stereo not drawn)
→ -7 | -12
Cc1cn2c3c(=O)n(Cc4ccc(F)cc4)c(=O)n(C)c3nc2n1CCCn1ccnc1
→ 7 | 10
CCOC(=O)[C@@H]1CN2CCN(C(=O)c3ccco3)C[C@@H]2[C@H]1c1ccccc1
→ 6 | 16
COc1cccc(C(=O)N2CCC(C(NC(=O)c3ccc(F)cc3)C(=O)NC3CC3)CC2)c1 (stereo not drawn)
→ 6 | 5
CC(=O)NCCNC(=O)C1Cc2c(-c3ccccc3)ccnc2O1 (stereo not drawn)
→ 5 | 3
CCOC(=O)c1c(C)[nH]c(C(=O)OCc2c(C)noc2C)c1C
→ 3 | 2
COC(=O)c1sccc1S(=O)(=O)N[C@@H]1CC[C@@H](N)C1
→ 2 | 1
CCOc1ccc(OCC(=O)NCc2nnnn2-c2ccc(OCC)cc2)cc1
→ 7 | 6
Cn1ccc2cc(-c3ccc(Cl)c(Cl)c3)cnc21
→ 7 | -3
CC(CCc1ccco1)NC(=O)c1cccc(S(=O)(=O)N(C)C)c1 (stereo not drawn)
→ -10 | -8
COc1ccc(C=C2N=C(c3cc(C)cc(C)c3)OC2=O)cc1OC
→ 0 | 1
CCNC(=O)N(Cc1cccc(C(F)(F)F)c1)CC1CC(c2ccccc2Cl)=NO1 (stereo not drawn)
→ -3 | 1
COc1ccccc1Nc1ncccc1C(=O)N1CC(C)OC(C)C1 (stereo not drawn)
→ 2 | 2
Cc1cc(C)c(NC(=O)CN(C)C(C)c2nc3ccccc3s2)c(C)c1 (stereo not drawn)
→ 16 | 15
CN(Cc1ccccc1)CN1C(=O)c2cccc3cccc1c23
→ 7 | 5
Cc1cc(CN2CCN(Cn3c(=S)oc4ccccc43)CC2)no1
→ 1 | -2
Cc1ccc(OCCn2c(=O)sc3ccccc32)cc1
→ 21 | 22
N#CC(=Cc1c(-c2ccccc2)nc2sccn12)c1nc2ccccc2[nH]1
→ 8 | 6
O=C(OC(c1ccccc1)c1ccncc1)c1c[nH]c(=O)c(Cl)c1 (stereo not drawn)
→ 6 | 4
O=C(Cn1ccc(=O)c2ccccc21)N1CCCC(CCc2ccc(F)cc2)C1 (stereo not drawn)
→ 7 | 5

The last 6 compounds of the section before come first, to join the parts.
Every second line gives: NPYLR7 agonist | NPYLR7 agonist max-min
CN(Cc1ccccc1)CN1C(=O)c2cccc3cccc1c23
→ 7 | 5
Cc1cc(CN2CCN(Cn3c(=S)oc4ccccc43)CC2)no1
→ 1 | -2
Cc1ccc(OCCn2c(=O)sc3ccccc32)cc1
→ 21 | 22
N#CC(=Cc1c(-c2ccccc2)nc2sccn12)c1nc2ccccc2[nH]1
→ 8 | 6
O=C(OC(c1ccccc1)c1ccncc1)c1c[nH]c(=O)c(Cl)c1 (stereo not drawn)
→ 6 | 4
O=C(Cn1ccc(=O)c2ccccc21)N1CCCC(CCc2ccc(F)cc2)C1 (stereo not drawn)
→ 7 | 5
Cc1cccn2c(CC(=O)N3CCc4nc(N)sc4C3)cnc12
→ 2 | 0
Cc1cccnc1CC(C)NC(=O)c1cc(Cn2ccc3ccccc32)[nH]n1 (stereo not drawn)
→ -6 | -8
CC(=O)c1ccc(N2CCN(C(=O)c3ccc(-n4nc(-c5cccc(Cl)c5)cc4N)cc3)CC2)cc1
→ 1 | -5
CCN(CC(=O)Nc1cc(Cl)ccc1C)Cc1cc(C)ccc1OC
→ 2 | 7
COc1ccc(C2c3cccn3CCCN2Cc2ccccc2Cl)c(OC)c1OC (stereo not drawn)
→ -2 | 9
CN(Cc1ccccc1)c1cc(Cl)nc(SCc2ccc(C(=O)N3CCN(Cc4ccccc4)CC3)cc2)n1
→ 11 | 23
CCOC(=O)c1ccc(OC2CC3CCC(C2)N3C(=O)c2ccc(CSc3nnnn3-c3ccc(OC)cc3)cc2)cc1 (stereo not drawn)
→ 10 | -1
CC(C)NC(=O)N1Cc2[nH]cnc2C[C@H]1c1nc(-c2ccc(OC(F)(F)F)cc2)no1
→ -10 | -18
CCCNC(=O)/C(=C/c1ccsc1)c1nc2ccccc2[nH]1
→ 13 | 6
NCCc1csc2nc(-c3ccccc3)nn12
→ 7 | 5
CC(NC(=O)Nc1ccccn1)c1ccc(C(F)(F)F)cc1 (stereo not drawn)
→ 5 | 2
COc1cccc(C2CC(c3cccs3)=NN2C(=O)CN2CCCCC2)c1O (stereo not drawn)
→ -12 | -13
CC1(C)Cc2nc3sc4c(NC5CCCCC5)ncnc4c3cc2CO1
→ -1 | -2
CCC(=O)Nc1c(-c2ccc(OC)c(OC)c2)nc2cc(C)ccn12
→ 7 | 9
Cc1nc(C)n(CCNC(=O)CCC2CCCCN2C)n1 (stereo not drawn)
→ 4 | 3
CCc1nn2c(ncc3c(=O)n(-c4ccc5c(c4)OCCO5)ccc32)c1-c1ccc(F)cc1
→ 8 | 7
CN(Cc1ccccc1Cl)S(=O)(=O)c1ccc(S(N)(=O)=O)cc1
→ 18 | 8
Brc1ccc(Cn2c(-c3ccc(Br)o3)nc3ccccc32)o1
→ -5 | -9
CCn1nnc2cc(C(=O)NC3CCCCC3C(F)(F)F)ccc21 (stereo not drawn)
→ 4 | 1
CCCCNc1nc2c(-c3ccccc3)nnn2c2ccccc12
→ -2 | -8
Cc1ccc(-c2noc(CCCN3CCN(S(=O)(=O)c4ccc([N+](=O)[O-])cc4)CC3)n2)cc1F
→ -6 | -7
Cc1cc(C)cc(NC(=O)Cn2c(-n3nc(C)cc3C)nc(C)cc2=O)c1
→ 2 | -1
COc1ccc(N2CCN(C(=O)c3cccnc3SCc3cccc(Br)c3)CC2)cc1
→ -16 | -11
COc1cccc(C2CCCN2C(=O)Nc2cccnc2OC)c1 (stereo not drawn)
→ 2 | -1
COc1cccc(C(CN2CCN(S(=O)(=O)c3ccccc3Cl)CC2)OCc2ccc(C#N)cc2)c1 (stereo not drawn)
→ 29 | 14
CCCCN(CC)Cc1cccc(CN)c1
→ 0 | 0
O=C(C1CCCC1)N(Cc1cccc(F)c1)CC1CC(c2ccc(Cl)c(Cl)c2)=NO1 (stereo not drawn)
→ 16 | 33
CCOC(=O)C1=C(C)NC(=S)NC1c1ccc(OC(C)C(=O)N(C)C)c(OCC)c1 (stereo not drawn)
→ -1 | 43
O=C(CCc1nc2sc3c(c2c(=O)[nH]1)CCCC3)NC1CCCC1
→ 0 | -3
Cc1ccc(C(=O)OCC(=O)Nc2ccccc2C(C)(C)C)s1
→ -4 | -8
COC(=O)c1ccc(COc2ccc(C=C3N=C(c4ccc(OC)cc4)OC3=O)cc2OC)cc1
→ 2 | 0
CCN(C(=O)C(c1ccccc1)c1ccccc1)C(C)c1nc2ccccc2c(=O)n1Cc1ccccc1 (stereo not drawn)
→ -6 | -6
COc1ccc(Cl)cc1N1CCN(CC(=O)O)CC1
→ 0 | 3
Cc1cc(C(F)F)n2nc(C(=O)Nc3ccc(C#N)cc3)nc2n1
→ -19 | -25
COc1cc2c(cc1OC)CN(S(=O)(=O)c1ccc(OC)c(N3CCN(C(=O)c4cc(F)cc(C(F)(F)F)c4)CC3)c1)CC2
→ 1 | -3
CCc1ccc(-c2c(-c3ccccc3)ncn2Cc2ccc(C(=O)NC)o2)o1
→ 6 | 5
Cc1cccc(CNC(=O)N2CCN3CCN(C)C(=O)C3C2)c1 (stereo not drawn)
→ 2 | -1
CS(=O)(=O)c1ccc(-c2ccc(NS(=O)(=O)c3cccs3)cc2)nn1
→ 16 | 7
COCCOCC(=O)N1CCN(Cc2ccc(-c3noc(-c4cccc(C(F)(F)F)c4)n3)cc2)CC1
→ 3 | 0
COC(=O)c1ccc(CN(CC(=O)N(CCc2c[nH]c3ccccc23)Cc2ccc(Cl)c(Cl)c2)C2CC2)o1
→ 0 | 3
Cc1cc(-c2cc3c(n(Cc4cccnc4)c2=O)CCN(C(=O)c2n[nH]c4c2CCC4)C3)ccc1F
→ 12 | -1
Cc1nc(C(=O)OCC2CN(CC(C)C)CCO2)c2ccccn12 (stereo not drawn)
→ 6 | 6
O=C(O)C=CC1=Cc2cc(Cl)ccc2OC1
→ -1 | -3
COc1cccc(-c2cc(C(=O)O)c3c(C)nn(C4CCS(=O)(=O)C4)c3n2)c1 (stereo not drawn)
→ -3 | -3
NC(=O)COC(=O)c1ccccc1Nc1cccc(C(F)(F)F)c1
→ -15 | -18
O=C(c1nc(-c2cccs2)n(-c2ccc(F)cc2)n1)N1CCCCC1
→ 3 | -1
CC(Nc1ccc2c(c1)NC(=O)C(C)O2)C(=O)NC12CC3CC(CC(C3)C1)C2 (stereo not drawn)
→ 0 | 0
Cc1ncccc1C(=O)N1CCCC(CNC(=O)C2(c3ccc(Cl)cc3)CC2)C1 (stereo not drawn)
→ 22&0 | 10&-3
COc1ccc(N2C(=O)C(c3c(-c4ccccc4)[nH]n(Cc4ccccc4)c3=O)=C(N3CCC(C)CC3)C2=O)c(OC)c1
→ 6 | 16
CCOC(=O)c1ccccc1NC(=O)N1CCC2(CC1)NCCNC2=O
→ 6 | 3
NS(=O)(=O)c1cccc2c(O)c(N=O)ccc12
→ -10 | -20
CCc1nc(SCC(=O)NCc2ccc(Cl)cc2)n[nH]1
→ 6 | 3
